VCAM-1 rise: enhancers of VCAM-1 display on endothelial cells, cell-based, plate reader, pooled HUVEC, TNFa stimulus (AID 455) | HUVEC TNFa-induced VCAM-1 immunofluorescence, plate reader; numbers were filed only for top-ranked candidate wells | augmentation, % at 5 µM | 0.2% of 10,000 active;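 active means a compound raising TNF-alpha-driven VCAM-1 surface staining, with its hit status upheld on visual or statistical review; inactive means the rest, including hits rejected on review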;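 further: 0% = TNFa with vehicle and 100% = strongest image-checked hit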
26S disassembly: inhibitors of ATP-driven 26S proteasome dissociation, primary screen, biochemical, bead-based flow cytometry, GFP-tagged proteasome. anti-FLAG beads, GFP-proteasome disassembly. inhibition of disassembly, % (no concentration beside the values). 0.2% of 24,000 active;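 active means above 40%; inconclusive means likely self-fluorescent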;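 further: plate controls were ATP control with full disassembly for no effect and ATP-gamma-S intact proteasomes for full effect; higher percent means more bead fluorescence retained so stronger block of disassembly; stock transfer was 100 nL into about 10 µL; wells with too few beads may also be inconclusive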
* = called active by the depositor. A portion of the library; count on the stated rates, not on these rows.

`CCOC(=O)C1=C(C)NC(C)=C(C(=O)OCC)C1C(=O)OC1CCOC1=O` (configuration not stated) gave VCAM-1 rise inactive and 26S disassembly 1.9.
Screening CCOC(=O)c1c(C)oc2cc(Br)c(O)c(Br)c12 returned 26S disassembly 0.4.
Cc1oc(-c2cccc(Cl)c2)[n+]([O-])c1C was read as 26S disassembly -1.4.
Screening Cc1ccc(CCNC(=O)C2CCC(=O)N2C(C)C)cc1 (configuration not stated) returned 26S disassembly -1.4.
`CCSc1nc2c(c(=O)[nH]1)C(c1cccnc1)C(C(=O)OC(C)C)=C(C)N2` (configuration not stated) gave VCAM-1 rise inactive and 26S disassembly 0.0.
Cc1cc2cc(CCNC(=O)CC(C)C)c(=O)[nH]c2cc1C was read as VCAM-1 rise inactive and 26S disassembly -0.8.
Screening CCn1c(C(C)NC(=O)c2ccc(OC)c(OC)c2)nc2ccccc21 (configuration not stated) returned 26S disassembly 0.3.
For COC(=O)CCn1nnc(-c2cccs2)n1 the results were VCAM-1 rise inactive and 26S disassembly 0.0.
For CCOc1cc(C(=O)Nc2ccon2)cc(OCC)c1OCC the results were VCAM-1 rise inactive and 26S disassembly 1.1.
`COc1ccc(NS(=O)(=O)c2ccc(N)cc2)nn1` gave VCAM-1 rise inactive and 26S disassembly -0.4.
O=C(CCN1C(=O)C2C3C=CC(C3)C2C1=O)Nc1ccc(F)cc1 (configuration not stated) was read as 26S disassembly -0.4.
`COCc1cc(C)nc(SCC(=O)Nc2cccc(C)c2)c1C#N` gave 26S disassembly -1.9.
Screening O=C(CCN1C(=O)C2C3C=CC(C3)C2C1=O)Nc1c(F)cccc1F (configuration not stated) returned 26S disassembly -0.8.
Screening COc1cc2c(cc1OC)C(C(=O)Nc1cccc(C)n1)C(c1cccnc1)N(C)C2=O (configuration not stated) returned 26S disassembly 0.2.
Cc1ccc(OCC(O)Cn2c(NCCc3ccccc3)nc3c2c(=O)[nH]c(=O)n3C)cc1 (configuration not stated) was read as VCAM-1 rise inactive and 26S disassembly -0.8.
CC(=O)NCC(=O)NC(C(=O)Nc1ccc2c(c1)OCCO2)c1ccccc1 (configuration not stated) was read as 26S disassembly -0.4.
CCCCCC(=O)N1CC2(CC)CN(C(=O)CCCCC)CC(CC)(C1)C2=O was read as VCAM-1 rise inactive and 26S disassembly -1.4.
`CCOc1ccccc1-c1nc(-c2ccc(C)nc2OC)no1` gave VCAM-1 rise inactive and 26S disassembly 21.6.
For Cc1ccccc1OCc1nc(-c2ccc(NC(=O)c3ccc4c(c3)OCO4)cc2)no1 the results were 26S disassembly 0.5.
`O=C(NCC1CCCO1)c1csc2c1CCCCC2` (configuration not stated) gave 26S disassembly 0.9.
`CCCCn1c(CN2CCN(c3ccc(F)cc3)CC2)nc2c1c(=O)n(C)c(=O)n2C` gave VCAM-1 rise inactive and 26S disassembly -0.3.
Screening NS(=O)(=O)c1cc2c(cc1Cl)NC(CSCc1ccccc1)=NS2(=O)=O returned VCAM-1 rise inactive and 26S disassembly -1.4.
`COc1ccccc1-n1c(SCC(N)=O)nnc1-c1ccccc1` gave VCAM-1 rise inactive and 26S disassembly -2.3.
For COCCCN1C(=O)C(=O)/C(=C(/O)c2ccc(OC)cc2)C1c1ccc(O)c(OC)c1 (configuration not stated) the results were VCAM-1 rise inactive and 26S disassembly -16.8.
For O=S1(=O)N=C(Nc2nc3c(s2)CCCC3)c2ccccc21 the results were VCAM-1 rise inactive and 26S disassembly 0.0.
Screening COC(=O)C(C)n1cnc2c(cnn2-c2ccc(Cl)cc2)c1=O (configuration not stated) returned 26S disassembly -0.9.
`COc1ccccc1-c1cn[nH]c(=S)n1` gave VCAM-1 rise inactive and 26S disassembly 1.0.
Screening O=C(c1cc(-c2ccc(Cl)c(Cl)c2)on1)N1CCCCC1 returned 26S disassembly -1.7.
Screening Cc1ccc(CS(=O)(=O)Cc2ccc(C(=O)NCc3ccccn3)o2)cc1 returned VCAM-1 rise inactive and 26S disassembly -1.1.
`CN1CCN(CCCNC(=O)C2CC(=O)N(C3CCCCC3)C2)CC1` (configuration not stated) gave VCAM-1 rise inactive and 26S disassembly 0.7.
Screening COC(=O)n1c(SC)nc2ccccc21 returned 26S disassembly -0.4.
For CC(=O)Nc1nnc(SCC(=O)NCC2CCCO2)s1 (configuration not stated) the results were VCAM-1 rise inactive and 26S disassembly -6.0.
`CCC(=O)c1ccc(OCC(O)CN2C(=O)NC(C)(C)C2=O)cc1` (configuration not stated) gave 26S disassembly -4.5.
For Cn1c2c(c(=O)n(C)c1=O)C(NS(=O)(=O)c1ccccc1)(C(F)(F)F)C(=O)N2 (configuration not stated) the results were 26S disassembly 1.0.
`COc1cc(Nc2nc(SCC#N)nc3ccccc23)cc(OC)c1OC` gave 26S disassembly -0.4.
Screening CCOC(=O)c1cc(-c2ccc(C)cc2)n(CCC(=O)NCCN(C)C)c1C returned 26S disassembly 2.3.
COc1cccc(C2CC(=O)N3CN(c4ccccc4F)CSC3=C2C#N)c1 (configuration not stated) was read as 26S disassembly -0.3.
`CCOc1ccc2[nH]cc(S(=O)(=O)c3ccc(F)cc3)c(=O)c2c1` gave 26S disassembly -0.3.
Nc1cc(N)cc(-c2nc3ccccc3o2)c1 was read as VCAM-1 rise inactive and 26S disassembly 2.5.
Screening CCNc1nc(NCC)n2c(SCc3nc4ccccc4c(=O)[nH]3)nnc2n1 returned VCAM-1 rise inactive and 26S disassembly 13.1.
`Cc1c(C(=O)Nc2ccccc2Cl)oc2ccc(S(=O)(=O)N3CCC4(CC3)OCCO4)cc12` gave 26S disassembly 0.9.
For COc1ccc(-c2cc(-c3ccc(F)cc3)nc(N3CCN(C)CC3)n2)cc1 the results were 26S disassembly -0.5.
For Cc1nnc(SCc2cn3ccsc3n2)n(N)c1=O the results were VCAM-1 rise inactive and 26S disassembly -0.1.
O=C(NCc1ccco1)c1cc(-c2ccco2)on1 was read as 26S disassembly 2.9.
Screening Cc1cc(=O)oc2ccc(OCC(=O)N3CCC(C)CC3)cc12 returned VCAM-1 rise inactive and 26S disassembly -1.4.
`COc1cc(C2NC(=O)NC(O)(C(F)(F)F)C2C(=O)c2ccc(Cl)cc2)ccc1O` (configuration not stated) gave 26S disassembly -1.3.
Cc1cccc(NC(=O)CC2CCC2)c1 was read as VCAM-1 rise inactive and 26S disassembly 3.3.
Screening CCOC(=O)N1CCN(c2c(NCCN3CCN(Cc4ccccc4)CC3)c(=O)c2=O)CC1 returned 26S disassembly -1.5.
`CCOC(=O)CC(C#N)c1cn(C)c2ccccc12` (configuration not stated) gave VCAM-1 rise inactive and 26S disassembly inconclusive.
CCc1ccc(CN2C(=O)CCC2(C)C(=O)NC2CCCC2)cc1 (configuration not stated) was read as 26S disassembly -1.1.
Screening NC(=O)C1(N2CCCCC2)CCN(c2ccc3nnc(-c4ccccc4)n3n2)CC1 returned 26S disassembly -0.3.
CCOC(=O)c1sc(=S)n(Cc2ccccc2)c1N was read as 26S disassembly 0.2.
`COC(=O)c1ccc(C2C(C(=O)OCC(C)C)=C(C)N=C3SCCC(=O)N32)cc1` (configuration not stated) gave 26S disassembly 0.4.
COc1ccc(OC(=O)c2ccncc2)cc1 was read as 26S disassembly 0.6.
COCCCNC(=O)C1CCN(S(=O)(=O)c2c(C)noc2/C=C\c2ccc(OC)cc2)CC1 was read as 26S disassembly -0.2.
Screening COc1cc2[nH]c(=O)n(CCC(=O)N3CCc4ccccc4C3)c(=O)c2cc1OC returned VCAM-1 rise inactive and 26S disassembly -0.4.
For CN(C)c1nccc(Nc2ccccc2)c1C#N the results were 26S disassembly -0.8.
`O=C1Nc2ccccc2OC1CC(=O)N1CCN(c2cccc(C(F)(F)F)c2)CC1` (configuration not stated) gave 26S disassembly -0.7.
For COc1cccc2c1OC1(C)CC2/C(=C(\C)O)C(=O)N1 (configuration not stated) the results were 26S disassembly 0.9.
`CC(C)(C)n1ncc2c(=O)n(CC(=O)c3ccccc3)cnc21` gave VCAM-1 rise inactive and 26S disassembly -0.3.
For CCS(=O)(=O)NCc1csc(C)n1 the results were 26S disassembly -0.7.
`C[N+]1(CCN2C(=O)C3CC=C(Cl)CC3C2=O)CCOCC1` (configuration not stated) gave 26S disassembly 1.5.
O=C(NC1CCCc2ccccc21)C1CCN(c2c(N3CCCC3)c(=O)c2=O)CC1 (configuration not stated) was read as 26S disassembly -0.7.
`COCCNC(=O)c1ccc2c(c1)nc(C)n2-c1cc(OC)c(OC)c(OC)c1` gave 26S disassembly 1.0.
Screening COc1cccc(NC(=O)CN2C(=O)C3(OCCCO3)c3ccccc32)c1 returned 26S disassembly -0.2.
C=CCn1c(C(C)NC(=O)C(C)(C)C)nc2ccccc21 (configuration not stated) was read as 26S disassembly -2.0.
CCC(C)NC(=O)CC1Oc2ccc(C)cc2NC1=O (configuration not stated) was read as VCAM-1 rise inactive and 26S disassembly 0.9.
CCOc1ccccc1CNS(=O)(=O)c1ccc2[nH]c(=O)sc2c1 was read as 26S disassembly 2.3.
COc1ccc(C2N(c3ccc(Cl)cc3)C(=O)C3CCCN32)cc1 (configuration not stated) was read as 26S disassembly 0.0.
Screening O=C(C1CC1)N1CCN=C1SCc1ccccc1 returned 26S disassembly -3.2.
`COC(=O)CSc1nnc(CNC(=O)Cc2ccccc2)n1C` gave 26S disassembly -2.2.
`CC1CCc2c(sc(NC(=O)c3noc4c3CCCC4)c2C(N)=O)C1` (configuration not stated) gave 26S disassembly 0.3.
Screening CCOC(=O)N1CCC(NC(=O)Cn2ncc3ccccc32)CC1 returned 26S disassembly 0.8.
Screening Cc1ccc2c(c1)nnn2C1CCN(C(=O)NC23CC4CC(CC(C4)C2)C3)CC1 returned VCAM-1 rise inactive and 26S disassembly 1.5.
For Cn1c(=N)c(S(=O)(=O)c2ccccc2)cc2c(=O)n3ccccc3nc21 the results were VCAM-1 rise inactive and 26S disassembly 0.8.
`CCCOc1cccc(C(=O)O)c1` gave 26S disassembly -0.7.
`CC12CCC(C(=O)N3CCN(C(=O)C45CCC(C)(C(=O)O4)C5(C)C)CC3)(OC1=O)C2(C)C` gave VCAM-1 rise inactive and 26S disassembly 0.8.
For COC(=O)c1onc(C(=O)c2ccccc2)c1C(=O)OC the results were VCAM-1 rise inactive and 26S disassembly 0.7.
`O=C(CN1C(=O)COc2ccccc21)NCCC1=CCCCC1` gave 26S disassembly -2.2.
For c1ccc(-c2nc(N3CCN(c4ccccc4)CC3)nc(-n3ccnc3)n2)cc1 the results were 26S disassembly -1.1.
`COC(=O)c1cnn2c(C(F)(F)F)cc(-c3ccco3)nc12` gave VCAM-1 rise inactive and 26S disassembly -1.0.
`O=c1[nH]c(=O)n([C@H]2C[C@H](O)[C@@H](CO)O2)cc1F` gave VCAM-1 rise inactive and 26S disassembly 1.2.
For CC(C)n1ncc(C(N)=O)c1N the results were 26S disassembly 1.4.
CC1CCN(c2nc(-c3ccco3)c3c(c2C#N)CC(C)(C)OC3)CC1 was read as 26S disassembly 0.2.
Screening CCOc1ccccc1-n1c(SCC(N)=O)nnc1-c1cccnc1 returned 26S disassembly 0.4.
Screening Cc1nc2ccc(S(=O)(=O)NCC(=O)NCCN3CCCCC3C)cc2s1 (configuration not stated) returned 26S disassembly 5.3.
Screening O=C(C1CC(c2ccc(F)cc2)=NO1)N1CCc2ccccc2C1 (configuration not stated) returned 26S disassembly 2.5.
Screening CCOc1ccc(C(=O)Nc2cc(C)on2)cc1OCC returned VCAM-1 rise inactive and 26S disassembly -1.2.
Screening N#Cc1c(C(F)(F)F)cc(C2CC2)[nH]c1=O returned 26S disassembly 0.8.

Arranged by SMILES length (lowest first): 17 of the compounds above
`CCCOc1cccc(C(=O)O)c1` gave 26S disassembly -0.7.
For CC(C)n1ncc(C(N)=O)c1N the results were 26S disassembly 1.4.
Screening O=C(C1CC1)N1CCN=C1SCc1ccccc1 returned 26S disassembly -3.2.
Screening CCOc1ccc(C(=O)Nc2cc(C)on2)cc1OCC returned VCAM-1 rise inactive and 26S disassembly -1.2.
Screening N#Cc1c(C(F)(F)F)cc(C2CC2)[nH]c1=O returned 26S disassembly 0.8.
`COC(=O)CSc1nnc(CNC(=O)Cc2ccccc2)n1C` gave 26S disassembly -2.2.
For COC(=O)c1onc(C(=O)c2ccccc2)c1C(=O)OC the results were VCAM-1 rise inactive and 26S disassembly 0.7.
Screening CCOC(=O)N1CCC(NC(=O)Cn2ncc3ccccc32)CC1 returned 26S disassembly 0.8.
Screening O=C(C1CC(c2ccc(F)cc2)=NO1)N1CCc2ccccc2C1 (configuration not stated) returned 26S disassembly 2.5.
`CC1CCc2c(sc(NC(=O)c3noc4c3CCCC4)c2C(N)=O)C1` (configuration not stated) gave 26S disassembly 0.3.
Screening Cc1nc2ccc(S(=O)(=O)NCC(=O)NCCN3CCCCC3C)cc2s1 (configuration not stated) returned 26S disassembly 5.3.
CC1CCN(c2nc(-c3ccco3)c3c(c2C#N)CC(C)(C)OC3)CC1 was read as 26S disassembly 0.2.
`O=c1[nH]c(=O)n([C@H]2C[C@H](O)[C@@H](CO)O2)cc1F` gave VCAM-1 rise inactive and 26S disassembly 1.2.
For Cn1c(=N)c(S(=O)(=O)c2ccccc2)cc2c(=O)n3ccccc3nc21 the results were VCAM-1 rise inactive and 26S disassembly 0.8.
For c1ccc(-c2nc(N3CCN(c4ccccc4)CC3)nc(-n3ccnc3)n2)cc1 the results were 26S disassembly -1.1.
Screening Cc1ccc2c(c1)nnn2C1CCN(C(=O)NC23CC4CC(CC(C4)C2)C3)CC1 returned VCAM-1 rise inactive and 26S disassembly 1.5.
`CC12CCC(C(=O)N3CCN(C(=O)C45CCC(C)(C(=O)O4)C5(C)C)CC3)(OC1=O)C2(C)C` gave VCAM-1 rise inactive and 26S disassembly 0.8.
